Sa ugtP lethal: growth inhibition of ugtP-null S. aureus, primary screen, RN4220 ugtP deletion, OD600 | growth inhibition, % (test concentration not listed) | actives 0.54% (n = 330,000) | 16 h; some inactives read as strong as hits;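 active = z-score under -3 and OD600 up to 0.15 on both plates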;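 note: plate controls were untreated wells for no effect and antibiotic for full effect; wells of about 80 µL received 100 nL stock; the first replicate is given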
Bead autofluor: flagged as autofluorescent in microsphere protease counterscreen | compound autofluorescence counterscreen, microsphere flow cytometry; stronger effect = higher value | fluorescence intensity (concentration not given with the values) | actives 3.1% (n = 360,000);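 active = at least 3 SD above the mean of all compounds, about 16000 in these data; inconclusive = too few beads counted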;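 note: 100 nL of 1 mM stock went into each well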
BJeLR lethal: MLPCN primary cell-based screen for lethality selective to Ras in HRASV12 cells | BJeLR (HRASV12) viability, CellTiter-Glo ATP luminescence, 48 h; reference of the scale not given here | inhibition, % (concentration not given with the values) | actives 0.17% (n = 300,000) | AID 1554, 2009;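 active = replicate mean above 50%; inconclusive = above 50% but judged a plate artefact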;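 note: 50 nL library stock added to about 25 µL; numbers are from one replicate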
Sa RN4220 lethal: growth inhibition of S. aureus RN4220, primary screen, OD600; actives 0.33% (n = 330,000); 16 h; inhibition, % (concentration not given with the values);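 active = z-score of -3 or lower and OD600 up to 0.18 on both plates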;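 note: plate controls were untreated cells for no effect and reference antibiotic for full effect; stock transfer was 100 nL into about 80 µL; one replicate is shown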
Mtb hypoxia rep: PubChem AID 1159583. M. tuberculosis hypoxia-regulated fluorescent reporter, fluorescence. fluorescence inhibition, % (no concentration beside the values). actives 0.1% (n = 300,000);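 active = 35 to 45% if threefold the growth effect, above 45% if 1.5-fold the growth effect; inactive = the rest, general growth blockers included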;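 note: wells of about 50 µL received 100 nL stock; 0% = vehicle wells and 100% = reference inhibitor wells; whole bacteria with a GFP reporter of the hypoxia response; strong numbers were not always called active; many hits fall short of the cut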
PrP UTR inh: inhibition of PrP 5' UTR reporter expression | cell-based PrP 5' UTR mRNA reporter, plate reader | inhibition, % (test concentration not listed) | actives 0.35% (n = 340,000) | AID 488862, 2010;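 active = every replicate at 50% or more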;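 note: 0 = median of the neutral control wells; tested in H4 reporter cells; numbers are from one replicate; inactives centre near -14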
Mtb hypoxia rep growth: second read-out of Mtb hypoxia rep, no call of its own (marks repeat the call); growth inhibition, %; measured here: M. tuberculosis growth (absorbance);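 0% = vehicle and 100% = reference antibiotic; read after six days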
* = called active by the depositor; ? = inconclusive; · = no result given.

SMILES	Sa ugtP lethal	Bead autofluor	BJeLR lethal	Sa RN4220 lethal	Mtb hypoxia rep	Mtb hypoxia rep growth	PrP UTR inh
O=C(NC(Cc1c[nH]c2ccccc12)C(=O)O)c1ccc(F)cc1 (configuration not stated)	3.8	2673	-2.9	2.9	3.6	8.9	-24.0
CCn1c(C(C)C)n[nH]c1=S	1.3	4123	5.9	6.3	0.0	-2.5	-21.1
O=C(c1ccc(S(=O)(=O)N2CCCCCC2)cc1)N1CCC(CN2C(=O)c3cccc4cccc(c34)C2=O)CC1	-12.3	3543	5.6	-3.9	12.5	1.4	-15.1
O=S1(=O)CCOC[C@H](CC2CCCCC2)N1Cc1cccc(C(F)(F)F)c1	·	2602	2.6	·	·	·	-7.2
Cc1cnc(NC2=NCCC2)s1	0.2	2036	-4.1	2.6	13.7	5.5	-16.8
CC(=Nc1ccccc1)C1=C(O)CSC1=O	9.0	9487	0.7	6.6	9.4	3.8	-6.6
CCOc1cccc(/C=C/C(=O)O)c1	0.0	4578	-14.5	2.3	-1.0	-0.3	-10.1
Cc1ccc(S(=O)(=O)N2C3C=CC(C3)C2C(=O)O)cc1 (configuration not stated)	4.0	5692	11.5	-0.1	·	·	-4.0
CCN1CCN(Cc2nc3c(c(=O)n(C)c(=O)n3C)n2Cc2cccc3ccccc23)CC1	-4.5	10747	3.0	0.0	2.9	7.6	-28.2
CN(C(=O)c1cccc(NC(=O)Cc2cccc(NC(=O)C3CCCN(C(=O)C4CCC4)C3)c2)c1)C1CC1 (configuration not stated)	0.3	3956	·	1.5	-3.5	2.9	-8.1
O=C1c2ccccc2NC(c2cccc([N+](=O)[O-])c2)N1O (configuration not stated)	-0.3	3729	3.3	6.6	15.6	0.2	-12.0
Cc1ccc(-n2c3nc(=O)[nH]c(=O)c-3cc3cc([N+](=O)[O-])ccc32)cc1C	1.0	2562	-2.5	-2.7	·	·	-13.0
O=C1c2ccccc2C(=O)c2c1ccc1c(=O)n(C3CCCCC3)[nH]c21	55.4	?	2.5	75.0	4.0	0.9	-20.3
c1cc(C2N3CCCN2CC3)ccn1 (configuration not stated)	3.7	3443	8.1	0.0	1.7	-1.8	-20.0
CN1CCc2nc(N)c(C#N)c(-c3ccccc3)c2C1	0.8	7815	-0.7	3.4	19.8	12.6	-31.4
O=C(Cn1cc2c(n1)CCCCC2)N1CCc2ccccc21	9.3	5015	-2.5	-0.4	·	·	-2.0
Cc1nnc(N2CCC(C(=O)N3CCCCCC3)CC2)c2nn(-c3ccc(Cl)cc3)c(C)c12	-19.5	6088	-4.2	-4.9	-12.7	6.9	-19.4
CCC(=O)Nc1c2c(nn1-c1ccc(F)cc1)CS(=O)(=O)C2	2.7	3538	-4.8	2.2	-5.0	-12.5	-12.5
O=S1(=O)CC(O)C(NCCO)C1 (configuration not stated)	2.3	2177	-1.5	1.3	2.6	-5.4	-24.5
COc1ccc(C(=O)COC(=O)Cn2c(C)csc2=O)c(OC)c1	2.4	?	-7.1	4.0	1.7	-3.0	-37.4
COC(=O)C1=C(C)N=C2SC(C)C(=O)N2C1/C=C/c1ccccc1OC (configuration not stated)	-7.5	3017	12.7	-0.1	·	·	1.7
COC(=O)c1ccc(NC(=O)Nc2ccccc2C)cc1	-12.0	3732	13.4	-5.0	-6.7	-6.1	-55.9
COc1ccc(CN2C(=O)c3cccnc3C2=O)cc1S(=O)(=O)N1CC(C)CC(C)C1 (configuration not stated)	0.6	5611	1.9	-0.3	3.0	4.3	6.2
CSc1cccc(NC(=O)CN(Cc2ccc(Cl)cc2)S(C)(=O)=O)c1	-1.8	11247	-1.3	7.1	-1.0	-26.3	-21.1
CC(=O)COc1ccc2cc(-c3ccccc3)c(=O)oc2c1	·	3602	0.6	·	·	·	-59.6
CCN(Cc1ccccc1)C(=S)NC(=O)c1ccccc1Br	3.6	3075	1.1	2.1	2.5	5.6	0.8
Clc1cccc(/C(Cc2nc3ccccc3[nH]2)=N\Nc2ccccc2)c1	·	1985	-16.5	·	·	·	-60.1
COc1ccccc1OCCn1c(C)c(C=O)c2ccccc21	-1.1	4437	-3.8	8.6	-0.8	7.5	-16.6
Cc1ccc(/C=C(\NC(=O)c2ccccc2)C(=O)N2CCCCC2)cc1	8.8	4428	4.0	2.4	1.4	4.5	-15.5
COc1ccc2[nH]c3c(c2c1)CC(C)NC3=O (configuration not stated)	4.9	·	8.7	3.4	5.6	-1.0	33.8
CCC(c1nnnn1C(C)(C)C)N1CCN(C(=O)c2ccco2)CC1 (configuration not stated)	3.4	5689	-11.9	-2.1	13.3	10.1	-18.8
COc1ccccc1CNC(=O)c1ccccc1OCc1ccc(F)cc1	-23.1	2440	-0.8	-3.2	-1.4	0.1	-16.4
COc1ccc(S(=O)(=O)c2c(O)c3ccc(C(=O)Nc4ccc(F)cc4)cc3[nH]c2=O)cc1	-3.3	4214	1.0	-2.6	-1.0	-4.6	-8.3
NS(=O)(=O)c1ccc(CNC(=O)C(Cc2ccccc2)NS(=O)(=O)c2ccccc2F)cc1 (configuration not stated)	1.6	4098	6.1	1.6	3.1	5.1	-10.2
O=[N+]([O-])c1cc(/C=N/n2cnnc2)ccc1N1CCCC1	·	2341	-16.1	·	·	·	3.5
O=C(NC(=S)NCCc1ccccc1)c1cccc(Cl)c1	·	6449	-4.2	·	·	·	-12.5
Cc1cc(-c2cc(C(=O)NCc3ccccc3)on2)nc(NCC2CC2)n1	-1.1	2955	6.6	3.1	7.1	9.1	-20.1
CCOC(=O)N1CCN(C(=O)C2CCC(=O)N(CCc3ccccc3)C2)CC1 (configuration not stated)	-0.2	6123	-14.2	2.3	1.1	-4.9	-9.4
O=C(NCc1ccccc1)c1ccccc1NC(=O)C1CCCCC1	8.7	4425	-4.8	2.4	4.7	0.0	-37.8
Cn1c(=O)c2sccc2n(Cc2ccccc2)c1=O	7.7	3921	-12.9	-0.5	7.9	0.8	-34.2
CCN(CC)CCOC(=O)c1ccc(NC(=O)c2ccc(Cl)c(S(=O)(=O)N3CCCCCC3)c2)cc1	2.5	4711	1.0	-2.5	-4.1	3.4	-17.6
CC(=O)c1cccc(NC(=S)NC(=O)c2cncc(Br)c2)c1	1.2	3344	1.3	0.4	5.8	-1.5	6.6
CCn1c(SCc2nc(-c3ccccc3)no2)nc2ccccc21	8.8	6042	6.4	9.6	4.9	12.2	0.1
O=C(NCCO)c1nsnc1NCCCl	-3.5	3563	-2.5	-1.3	-8.0	-8.2	9.9
Cc1cccc(N2CCN(S(=O)(=O)c3cnc[nH]3)CC2)c1C	10.3	5576	17.6	4.3	9.7	8.0	-17.0
C#CCOCCOCCOCCNc1nc(N2CCN(C(=O)[C@H](CCC(=O)O)n3cc([C@@H](N)[C@H](C)CC)nn3)CC2)nc(N2CCN(C(=O)[C@H](CCC(=O)O)n3cc([C@@H](N)CC(N)=O)nn3)CC2)n1	-1.0	3469	·	1.0	2.6	9.4	-20.5
COc1cc(C(=O)NCc2cc3ccccc3n2C)cc(OC)c1OC	-1.9	3941	-2.8	1.6	-4.9	0.0	-20.8
COc1ccc(C(=O)NC(=O)Nc2cc(C)ccn2)cc1	3.8	5181	9.3	5.0	8.6	8.8	61.0*

Part of the list above, with bars between the fields.
compound | Sa ugtP lethal | Bead autofluor | BJeLR lethal | Sa RN4220 lethal | Mtb hypoxia rep | Mtb hypoxia rep growth | PrP UTR inh
O=C(NC(Cc1c[nH]c2ccccc12)C(=O)O)c1ccc(F)cc1 (configuration not stated) | 3.8 | 2673 | -2.9 | 2.9 | 3.6 | 8.9 | -24.0
CCn1c(C(C)C)n[nH]c1=S | 1.3 | 4123 | 5.9 | 6.3 | 0.0 | -2.5 | -21.1
O=C(c1ccc(S(=O)(=O)N2CCCCCC2)cc1)N1CCC(CN2C(=O)c3cccc4cccc(c34)C2=O)CC1 | -12.3 | 3543 | 5.6 | -3.9 | 12.5 | 1.4 | -15.1
O=S1(=O)CCOC[C@H](CC2CCCCC2)N1Cc1cccc(C(F)(F)F)c1 | · | 2602 | 2.6 | · | · | · | -7.2
Cc1cnc(NC2=NCCC2)s1 | 0.2 | 2036 | -4.1 | 2.6 | 13.7 | 5.5 | -16.8
CC(=Nc1ccccc1)C1=C(O)CSC1=O | 9.0 | 9487 | 0.7 | 6.6 | 9.4 | 3.8 | -6.6
CCOc1cccc(/C=C/C(=O)O)c1 | 0.0 | 4578 | -14.5 | 2.3 | -1.0 | -0.3 | -10.1
Cc1ccc(S(=O)(=O)N2C3C=CC(C3)C2C(=O)O)cc1 (configuration not stated) | 4.0 | 5692 | 11.5 | -0.1 | · | · | -4.0
CCN1CCN(Cc2nc3c(c(=O)n(C)c(=O)n3C)n2Cc2cccc3ccccc23)CC1 | -4.5 | 10747 | 3.0 | 0.0 | 2.9 | 7.6 | -28.2
CN(C(=O)c1cccc(NC(=O)Cc2cccc(NC(=O)C3CCCN(C(=O)C4CCC4)C3)c2)c1)C1CC1 (configuration not stated) | 0.3 | 3956 | · | 1.5 | -3.5 | 2.9 | -8.1
O=C1c2ccccc2NC(c2cccc([N+](=O)[O-])c2)N1O (configuration not stated) | -0.3 | 3729 | 3.3 | 6.6 | 15.6 | 0.2 | -12.0
Cc1ccc(-n2c3nc(=O)[nH]c(=O)c-3cc3cc([N+](=O)[O-])ccc32)cc1C | 1.0 | 2562 | -2.5 | -2.7 | · | · | -13.0
O=C1c2ccccc2C(=O)c2c1ccc1c(=O)n(C3CCCCC3)[nH]c21 | 55.4 | ? | 2.5 | 75.0 | 4.0 | 0.9 | -20.3

Following part.
SMILES	Sa ugtP lethal	Bead autofluor	BJeLR lethal	Sa RN4220 lethal	Mtb hypoxia rep	Mtb hypoxia rep growth	PrP UTR inh
O=C(c1cn(-c2ccccc2)nc1-c1cccnc1)N1CCCCC1	3.5	6721	-4.0	2.6	5.7	8.5	-12.8
Cc1nn(C)cc1C=NNC(=O)Cn1cncn1	6.2	·	·	3.5	4.9	6.0	·
CCOC(=O)Cn1c(=O)c2c(nc3n2CCCCN3c2ccc(OCC)cc2)n(C)c1=O	-1.8	5433	-1.1	4.1	5.3	-1.2	-14.6
COc1ccccc1NC(=O)Cc1nc(CCl)cs1	1.5	2237	-5.6	0.9	6.8	4.0	-24.0
Cc1no[n+]([O-])c1COc1ccccc1/C=C1\NC(=S)NC1=O	6.5	2437	-0.9	-0.1	·	·	-39.0
CCOC(=O)N1CCN(C(=O)CSc2ccc(-c3ccccc3OC)nn2)CC1	1.3	4359	-1.3	0.0	-0.7	-2.6	-129.1
COC(=O)C(C(=O)Nc1cccc(Cl)c1C)C1CCCC1 (configuration not stated)	4.7	2248	-7.6	2.7	7.4	6.4	-5.4
CCOC(=O)C(NCCc1ccccc1F)(NC(=O)CC)C(F)(F)F (configuration not stated)	-2.2	1974	-26.5	2.8	8.1	6.5	-17.6
Cc1ccc(C2=NC3(CCCC3)NC2=S)cc1	9.4	5177	10.4	4.3	-0.2	-5.0	-16.6
O=C(NN=Cc1cccnc1)C1CCCN(S(=O)(=O)c2ccccc2)C1 (configuration not stated)	3.3	·	·	5.1	2.3	4.9	·
O=C(Nc1cccc(F)c1)NC1(C(=O)NCC2CCCO2)CCCCC1 (configuration not stated)	11.4	4001	3.1	0.6	-6.2	-3.8	-19.3
CN(CCN1CCOCC1)Cc1nc(-c2ccc3c(c2)OCO3)no1	1.3	4240	2.1	4.6	10.9	-2.6	-10.9
CCOC(=O)c1c(N=Cc2ccc(OC)cc2O)sc2c1CCN(C)C2	3.2	·	·	2.1	4.4	-0.7	·
COC(=O)c1ccc(C(=O)O)nc1	19.8	6405	0.1	2.5	-9.0	-7.9	-29.8
CCOC(=O)N1CCC(NC(=O)c2cc3c(C)nc4ccccc4c3o2)CC1	-3.7	5201	2.6	-0.8	-1.0	7.2	-13.8
Cc1ccc(C(=O)NCC(=O)NC2CCCC2)cc1	5.5	4716	4.3	3.3	10.3	-3.1	-15.5
CN(CC(=O)NCCCN1CCOCC1)S(=O)(=O)c1ccc(Cl)cc1	3.1	2828	·	2.5	7.5	5.2	-12.2
CNC(=O)c1ccc(-c2sc3nc(N4CCOCC4)c4c(c3c2N)CC(C)(C)OC4)o1	7.6	4697	-2.7	-0.3	·	·	-18.0
COc1cccc(C(=O)Nc2cccc3cccnc23)c1OC	5.5	3960	-10.0	1.7	11.3	4.0	-11.7
CN(C)Cc1c(C(=O)N/N=C/c2cccc(OCc3c(F)cccc3Cl)c2)nnn1-c1nonc1N	·	5873	5.8	·	·	·	-10.5
CC(COc1ccccc1)N1CCC(CO)(CCc2ccccc2)CC1 (configuration not stated)	-7.5	4756	7.8	-2.9	4.1	2.5	-9.0
